High-throughput results deposited in PubChem by National Center for Advancing Translational Sciences (NCATS).
Six1-Eya2 blk – inhibitors of human Six1/Eya2 interaction. AlphaScreen GST-Six1/His-Eya2 binding, biochemical; stronger effect = lower value; control for the full effect not named in the record. activity change, % (no concentration beside the values). 0.56% of 360,000 active. AID 651725; in the data active = activity change below about -65%; inconclusive = about -30% to -65%; inactive = above about -30%; further: on the % scale 0 is the no-effect control and ±100 the full control effect; compound concentration not given in the record
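Compounds are tested against tagged Six1 and Eya2 proteins bridged by glutathione donor and nickel acceptor beads; after a one-hour incubation at 37 °C without light, AlphaScreen emission is recorded.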
PINK1 expr mod – changes PINK1 expression | PINK1 immunofluorescence, high-content cytometry, 24 h | Potency, µM (titrated, usually from 76.6 µM), for inactives: at the top dose activation (PINK1 increase), hits mostly activators | 0.2% of 410,000 active; active = well fitted activation curve with a large enough effect; inconclusive = small, poorly fitted or top-dose-only effect; inactive = flat fitted curve, though single readings scatter; cell line not stated here;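 further: potency means the concentration at half of the fitted maximal effect; % of control where 0% means no effect; nearly all actives have a fitted effect of over 65% in size; a mitochondrial uncoupler was the plate control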
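Cells are seeded, rested 12 hours, then given compound at five concentrations or DMSO for 24 hours. After fixation, blocking and antibody staining, PINK1 amount and mitochondrial localization are scored; CCCP serves as control.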
CtBP-E1A inh – inhibitors of CtBP/E1A interaction | AID 651724 | 0.49% of 340,000 active | AlphaScreen GST-E1A/His-CtBP binding, 1536-well; stronger effect = lower value; control for the full effect not named in the record | activity change, % (concentration not given with the values); in the data active means activity change below about -65%; inconclusive means about -30% to -65%; inactive means above about -30%; further: on the % scale 0 is the no-effect control and ±100 the full control effect
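AlphaScreen with 125 nM GST-E1A and 125 nM His-CtBP (5X stocks) in Tris pH 8.0, 300 mM NaCl, BSA, Tween 20, TCEP. Compounds preincubated 2 h at 37 deg C, then glutathione donor/nickel acceptor beads added for 1 h at 37 deg C in dark.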
D2 PAM – human D2 receptor positive allosteric modulation. AID 624464. 0.23% of 360,000 active. potentiation, % (concentration not given with the values). DiscoveRx D2 beta-arrestin cells, luminescence, 90 min; 100% = 57 uM dopamine signal. P14416; active = potentiation of 50% or more; inconclusive = 30% to 50%; inactive = 30% or less;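 further: compound concentration not given in the record; tested on top of an EC20 dose of dopamine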
Target sequence (P14416 whole entry, looked up): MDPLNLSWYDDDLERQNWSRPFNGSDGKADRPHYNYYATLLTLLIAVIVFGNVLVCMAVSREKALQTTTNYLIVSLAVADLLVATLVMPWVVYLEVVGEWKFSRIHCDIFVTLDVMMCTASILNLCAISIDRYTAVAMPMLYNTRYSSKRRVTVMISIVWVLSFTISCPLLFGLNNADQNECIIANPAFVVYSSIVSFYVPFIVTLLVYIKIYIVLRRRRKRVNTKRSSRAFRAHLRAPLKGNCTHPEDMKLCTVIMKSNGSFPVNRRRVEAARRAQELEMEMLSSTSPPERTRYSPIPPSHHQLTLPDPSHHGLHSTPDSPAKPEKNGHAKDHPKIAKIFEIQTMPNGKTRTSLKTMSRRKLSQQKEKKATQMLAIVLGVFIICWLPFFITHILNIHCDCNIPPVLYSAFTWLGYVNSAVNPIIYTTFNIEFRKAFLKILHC
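PathHunter beta-arrestin assay in DiscoveRx D2 cells. Compounds were added with an EC20 of dopamine (50 nM final) for 90 min at 37 deg C. Luminescence was read 1 h after detection reagent, with 57 uM dopamine as the EC100 control.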
TRPML1 ag – human mucolipin-1 channel agonism; 0.12% of 410,000 active; TRPML1-expressing cells, Ca2+ dye fluorescence, FDSS; host cell line not named in the record; reference of the full effect not given here; activation, % (test concentration not listed); Q9GZU1; in the data active = activation above about 50%; inconclusive = about 30% to 50%; inactive = below about 30%; further: 0% is about no effect; the text of the record puts the active cut at 80%
Target sequence (Q9GZU1 whole entry, looked up): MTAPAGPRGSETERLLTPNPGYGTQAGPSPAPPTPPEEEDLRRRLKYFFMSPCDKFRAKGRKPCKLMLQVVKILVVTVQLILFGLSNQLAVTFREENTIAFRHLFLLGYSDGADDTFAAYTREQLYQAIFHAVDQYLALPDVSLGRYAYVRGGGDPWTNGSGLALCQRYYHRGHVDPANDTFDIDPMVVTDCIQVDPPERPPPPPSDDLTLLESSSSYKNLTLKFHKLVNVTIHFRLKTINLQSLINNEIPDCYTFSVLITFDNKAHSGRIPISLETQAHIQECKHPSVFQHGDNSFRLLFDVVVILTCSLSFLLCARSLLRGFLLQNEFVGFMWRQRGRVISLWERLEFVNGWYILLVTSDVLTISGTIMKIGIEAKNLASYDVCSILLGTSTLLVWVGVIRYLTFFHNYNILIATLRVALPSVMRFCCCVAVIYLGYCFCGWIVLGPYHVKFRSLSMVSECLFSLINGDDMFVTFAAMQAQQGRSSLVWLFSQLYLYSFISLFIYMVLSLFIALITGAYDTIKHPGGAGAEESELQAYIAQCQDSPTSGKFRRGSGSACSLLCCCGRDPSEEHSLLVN
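Calcium fluorescence on an FDSS kinetic reader gave the read-out. Tet-induced TRPML1-DL cells were plated overnight, dye-loaded (Ca8 with quencher, 45-90 min, room temperature, dark), then read 110 s after compound addition, and again 110 s after 4uM final 54-4 (EC80).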
D2 ag – activates the human D2 dopamine receptor. AID 624465. DiscoveRx PathHunter D2 beta-arrestin, luminescence, 90 min; 100% = 57 uM dopamine signal. activation, % (concentration not given with the values). P14416. 0.084% of 360,000 active; in the data active = activation above about 40%; inconclusive = about 15% to 40%; inactive = below about 15%; further: compound concentration not given in the record; the text of the record calls up to 30% inactive
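Agonist mode: compounds alone added to overnight-plated D2 PathHunter cells for 90 min at 37 C, with 57 uM final dopamine (EC100) defining full response. Beta-arrestin recruitment detected by chemiluminescent reagent, read after 1 h at ambient temperature.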
Numbers without * were called inactive; u = inconclusive; x = not tested or not shown; & = joins results of further samples; [ ] = dose if it differs, or a comment.

Keys: A = Six1-Eya2 blk; B = PINK1 expr mod; C = CtBP-E1A inh; D = D2 PAM; E = TRPML1 ag; F = D2 ag
CC(=O)NN1C(=O)/C(=C2/Sc3ccc(Cl)cc3N2C)SC1=S
  A = -22	B = 12%	C = -12	D = -4	E = -0.6	F = -2.2

CCn1c(C)c(C(C)=O)c(N2CCN(C(c3ccccc3)c3ccccc3)CC2)nc1=S
  A = 2	B = 11%	C = 4	D = -2	E = -0.4	F = -3.3

COc1ccc(CC(=O)NNC(=S)Nc2ccccc2)cc1Br
  A = -4	B = -0.8%	C = 2	D = -24	E = 0.1	F = -7.3

Clc1cccc(N2CCN(CCNc3nc4ccccc4n4cnnc34)CC2)c1
  A = -17	B = 2.6%[38.3 µM]	C = -28	D = -16	E = 0.2	F = 2.7

CCN(CC)C(=O)C1CCCN(C(=O)c2ccc3nc(-c4cccc(OC)c4)oc3c2)C1 (configuration not stated)
  A = -6	B = 1.4%	C = -5	D = -3	E = -0.5	F = 2.7

CCCOc1ccc(N/C=C/C(=O)c2cc(OC)c(OC)c(OC)c2)cc1
  A = -1	B = 1.3%	C = x	D = 83*	E = x	F = 1.5

COc1ccc(CCNC(=O)CC(c2ccccc2)c2cccc(C)c2O)cc1OC (configuration not stated)
  A = -12	B = 0.0%	C = 0	D = 7	E = 3.4	F = 4.5

Nc1c(-c2ccc(Cl)cc2)nnn1-c1ccccc1
  A = 24	B = 3.6%	C = 0	D = -11	E = 0.1	F = -1.3

COc1ccc(CCC(=O)NC2CCCN(Cc3ccc(Cl)cc3)C2)cc1OC (configuration not stated)
  A = -6	B = -0.1%	C = x	D = -40	E = x	F = -2.0

Cc1cccc(OCCC(=O)Nc2ccc(F)c(F)c2)c1
  A = 33	B = 2.5%	C = -19	D = -7	E = 2.0	F = -3.0

Three entries from above, sorted by the value under D2 PAM, lowest first.
Structure,Six1-Eya2 blk,CtBP-E1A inh,D2 PAM,D2 ag
Clc1cccc(N2CCN(CCNc3nc4ccccc4n4cnnc34)CC2)c1,-17,-28,-16,2.7
Cc1cccc(OCCC(=O)Nc2ccc(F)c(F)c2)c1,33,-19,-7,-3.0
CCN(CC)C(=O)C1CCCN(C(=O)c2ccc3nc(-c4cccc(OC)c4)oc3c2)C1 (configuration not stated),-6,-5,-3,2.7

Additional results.
Keys: A = Six1-Eya2 blk; B = PINK1 expr mod; C = CtBP-E1A inh; D = D2 PAM; E = TRPML1 ag; F = D2 ag
O=C(NC1CC1)c1cccc(NC(=O)C2CCCCC2)c1
  A = 13	B = 1.1%	C = 5	D = -8	E = -0.4	F = -2.7

COc1ccc(-c2nn(-c3ccccc3)cc2/C=N/NC(=O)c2cccc(S(=O)(=O)Nc3ccccc3Cl)c2)cc1
  A = -20	B = 6.4%	C = -1	D = 11	E = 0.1	F = 1.6

COCc1cc(C)nc2sc(C(=O)Nc3cccc(OC)c3)c(N)c12
  A = 16	B = 0.1%	C = 10	D = 0	E = 1.1	F = -1.0

COC(=O)c1ccc(NC(=S)NC2CCCCC2)cc1
  A = 1	B = 7.3%[38.3 µM]	C = -2	D = -7	E = 0.4	F = -0.2

O=C(COC(=O)CCC1CCCC1)Nc1ccc(Cl)cn1
  A = 6	B = -0.4%	C = -1	D = -6	E = 2.4	F = 1.0

CC(C)C[C@H]1CNC(=S)N1C[C@H]1CCCN1C[C@H](Cc1ccc(O)cc1)N1C[C@H](Cc2ccccc2)N(CC2CCCCCC2)C1=S
  A = -13	B = 5.5%	C = -16	D = -7	E = -0.2	F = -4.4

CNc1nc(NCc2ccc(N(C)C)cc2)c2sccc2n1
  A = -67*	B = 1.5%	C = u	D = -7	E = 1.8	F = -4.6

Cc1ccn2c(CN(C)CCn3nc(C)cc3C)c(C(=O)N3CCCCCC3)nc2c1
  A = 5	B = 1.0%	C = x	D = -4	E = 1.4	F = -4.7

COc1ccc(C(=O)COC(=O)CN2C(=O)C3CC=CCC3C2=O)c(OC)c1 (configuration not stated)
  A = -6	B = 0.0%	C = x	D = 10	E = -0.7	F = 0.8

O=C(NCCN1CCOCC1)/C(=C\c1ccccc1F)NC(=O)c1ccccc1
  A = 4	B = 1.4%	C = 7	D = -22	E = 1.1	F = -3.4

Cc1ccccc1NS(=O)(=O)c1ccc(C(=O)NCCCN2CCOCC2)cc1
  A = 4	B = -1.3%	C = -12	D = -10	E = 0.8	F = -3.0

Cc1csc(NC(=O)CSc2nnc(-c3cccnc3)o2)n1
  A = 0	B = -0.6%	C = -7	D = -5	E = 0.6	F = -2.7

O=C(Cn1ncc2c1-c1ccccc1OC2)Nc1nc2ccccc2s1
  A = -5	B = 0.3%	C = -6	D = -7	E = -0.7	F = -4.1

Cc1ccccc1NS(=O)(=O)c1ccc(C(=O)N2CCCCCCC2)cc1
  A = 5	B = 3.2%	C = -1	D = -1	E = 4.4	F = 0.6

COc1ccc(NS(=O)(=O)c2cc(NC(=O)C3CC3)ccc2N2CCCCC2)cc1
  A = -6	B = -0.1%	C = -13	D = -7	E = 1.8	F = 1.9

Cc1cccc(C)c1NC(=O)CN(C)C(=O)/C=C/c1cccs1
  A = 0	B = -0.9%	C = x	D = 2	E = -0.6	F = 9.5

CCOc1ccccc1NC(=O)CSc1nnc(C2CC2)n1CC
  A = -3	B = -2.4%	C = 9	D = -5	E = 2.1	F = -1.1

COc1ccc(OC)c(-c2cc(C(=O)NCCN3CCOCC3)no2)c1
  A = 0	B = 2.3%	C = -2	D = -29	E = -0.3	F = -6.3

CC(C)Cc1nnc(NC(=O)CCC(=O)N2CCN(Cc3ccccc3)CC2)s1
  A = 0	B = -1.4%	C = 0	D = -7	E = -0.2	F = -1.8

C=CCN(c1ccc(C(=O)Nc2ccc3c(c2)OCO3)cc1)S(C)(=O)=O
  A = -2	B = 2.0%	C = -5	D = -9	E = -0.6	F = -8.7

Cc1cc(C(=O)N2CCCC(CNS(=O)(=O)c3cccs3)C2)nn1C (configuration not stated)
  A = 11	B = -0.5%	C = 1	D = -2	E = -1.2	F = -5.7

O=C(COc1ccc2c(-c3ccccc3)cc(=O)oc2c1)Nc1ccc(CN2CCOCC2)cc1
  A = 0	B = 7.9%	C = -1	D = -10	E = 0.2	F = -1.5

CC1CCCC(NC(=O)c2ccc3c(c2)N(Cc2ccccc2)C(=O)CS3=O)C1C (configuration not stated)
  A = 11	B = 0.4%	C = 26	D = 1	E = 0.1	F = -1.3

N/C(=N\OC(=O)CCN1C(=O)c2ccccc2C1=O)c1ccccn1
  A = -4	B = -1.5%	C = x	D = 2	E = 2.1	F = 3.6

Cc1ccc(-c2nc3ccc(C)cn3c2Cc2ccccn2)cc1
  A = 2	B = 2.0%	C = -5	D = x	E = 1.6	F = x

Cn1nc(C(=O)N2CCOCC2)c([N+](=O)[O-])c1C(=O)N1CCOCC1
  A = 1	B = -3.2%	C = 12	D = -3	E = -0.2	F = -3.0

CCOC(=O)C1CCN(S(=O)(=O)c2ccc3c(c2)NC(=O)C(C)C(=O)N3)CC1 (configuration not stated)
  A = -1	B = 1.0%&-1.5%	C = -7	D = -4	E = 0.0&-0.7	F = -5.4

O=C(Nc1ncc([N+](=O)[O-])s1)c1ccccc1Br
  A = 20	B = u	C = x	D = -40	E = x	F = -1.5

c1ccc(N2CCN(c3nc4cc5c(cc4s3)OCCO5)CC2)cc1
  A = -3	B = 0.9%	C = -3	D = -7	E = -0.9	F = 2.9

COC(=O)c1[nH]c(=O)c2ccccc2c1OCc1ccccc1
  A = -10	B = 1.0%	C = -6	D = -4	E = 0.1	F = -3.9

CCC(=O)Nc1ccc(-c2ccc(N3CCN(C)CC3)nn2)cc1
  A = 2	B = 1.9%	C = x	D = -4	E = -0.3	F = -0.2

CC(C)NC(=O)N(C)C[C@H]1Oc2c(NC(=O)Nc3ccc(C(F)(F)F)cc3)cccc2C(=O)N([C@H](C)CO)C[C@@H]1C
  A = 4	B = 1.2%	C = 6	D = 4	E = -0.4	F = 5.2

NC(=O)c1cccc(-c2coc3c(C(=O)NCc4ccccc4)cccc23)c1
  A = u	B = -0.5%	C = u	D = -8	E = 4.9	F = 7.3

CCCNC(=O)C1(C)CCCN(Cc2ccccc2-c2ccccc2)C1 (configuration not stated)
  A = 2	B = 1.0%	C = 2	D = 1	E = -0.8	F = -1.1

CSc1ncnc2c1ncn2CCCNCCCc1ccccc1
  A = 2	B = 0.8%	C = -3	D = -3	E = -0.4	F = -7.1

COc1cccc(CN2CCCC(C(=O)N3CCCCC3)C2)c1OC (configuration not stated)
  A = -1	B = x	C = 1	D = -20	E = 0.3	F = -2.5

CCCN(C)C1CN(Cc2cn(Cc3ccc(F)cc3)nn2)S(=O)(=O)C1 (configuration not stated)
  A = 4	B = -0.4%	C = 5	D = x	E = -0.4	F = x

Cn1cc(CCNC(=O)CC2C(=O)NCCN2CC(c2ccccc2)c2ccccc2)cn1 (configuration not stated)
  A = 2	B = -1.5%	C = 3	D = -7	E = 0.7	F = 0.4

COc1ccc(NC(=O)C2C(=O)N(C)C3(C)CC2c2ccccc2O3)cc1 (configuration not stated)
  A = 8	B = -1.1%	C = 5	D = -5	E = 2.6	F = -3.1

CCN1CCN(C(=S)Nc2ccc3nc4n(c(=O)c3c2)CCCCC4)CC1
  A = -5	B = 2.0%	C = -2	D = -28	E = -0.6	F = -5.0

Six1-Eya2 blk, hit marks shown above
Molecule | Six1-Eya2 blk | CtBP-E1A inh | D2 PAM | D2 ag
CNc1nc(NCc2ccc(N(C)C)cc2)c2sccc2n1 | -67* | u | -7 | -4.6

Next entries follow:
Keys: A = Six1-Eya2 blk; B = PINK1 expr mod; C = CtBP-E1A inh; D = D2 PAM; E = TRPML1 ag; F = D2 ag
CCOCCn1c(SC)nc2c1c(=O)[nH]c(=O)n2C
  A = 0	B = -0.2%	C = 6	D = -4	E = 0.1	F = -4.0

CN1CCc2nc(SCc3ccc(C(C)(C)C)cc3)c(C#N)cc2C1
  A = -1	B = 9.9%[38.3 µM]	C = -4	D = -10	E = 1.0	F = 0.3

CCCCc1cc2c(s1)CCCC/C2=N/O
  A = -2	B = 5.2%	C = 6	D = -9	E = 0.0	F = 2.0

Cc1cccc(CN2CCC(N3CC(C)OC(C)C3)CC2)c1 (configuration not stated)
  A = 6	B = 0.2%	C = 2	D = -3	E = 0.6	F = u

N#Cc1cc(N)c(Nc2ccccc2)cc1C#N
  A = 2	B = 0.0%	C = 7	D = 2	E = -0.7	F = -2.1

CCOc1ccc(CCn2c(-c3ccco3)nc3ccccc3c2=O)cc1OCC
  A = -4	B = 11%[38.3 µM]	C = -2	D = 1	E = 0.5	F = -2.2

CC1(C)CCCN(C(=O)N2c3ccccc3Sc3ccccc32)C1
  A = -3	B = 0.1%	C = 9	D = -14	E = -0.6	F = -2.7

Cc1ccc(S(=O)(=O)/N=C(/c2ccc(F)cc2)N2CCOCC2)cc1
  A = -1	B = -0.6%	C = 5	D = 15	E = 0.5	F = 0.4

Compound profiles (already shown):
Record of `Cc1ccc(S(=O)(=O)/N=C(/c2ccc(F)cc2)N2CCOCC2)cc1` = Six1-Eya2 blk: -1; PINK1 expr mod: -0.6%; CtBP-E1A inh: 5; D2 PAM: 15; TRPML1 ag: 0.5; D2 ag: 0.4
Record of `CCOCCn1c(SC)nc2c1c(=O)[nH]c(=O)n2C` = Six1-Eya2 blk: 0; PINK1 expr mod: -0.2%; CtBP-E1A inh: 6; D2 PAM: -4; TRPML1 ag: 0.1; D2 ag: -4.0
